Ba CapD inh: CapD enzyme inhibition. purified CapD enzyme, fluorescence intensity read-out; active compounds read low; some hits fall short of the stated cut. z-score (no concentration beside the values). actives 0.23% (n = 140,000);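 active = z-score under -4 in either of two replicates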;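 also: stock transfer was 100 nL into about 40 µL; score is relative to mean and spread of the plate; one replicate is shown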
AID504770: growth inhibitors of E. coli YBA685 in a screen for V. cholerae RctB (chromosome II replication) inhibitors; actives 0.27% (n = 130,000); z-score (concentration not given with the values); E. coli YBA685 rctB-dependent plasmid, OD600 growth, 3 h; active compounds read low;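 active = z-score under -2 on both plates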;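 also: wells of about 30 µL received 100 nL stock; score is relative to mean and SD of the test wells; the first replicate is given; strong numbers were not always called active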
Numbers without * were called inactive; i = inactive; x = not tested or not shown. Hits appear at their usual frequency. About 0.39% of those tested had a hit in this group.

Second line of a record – AID504770, Ba CapD inh
CC1CN(C(=O)COC(=O)/C=C/c2ccc(C(F)(F)F)cc2)CC(C)O1 (stereo unspecified)
 : -1.1, x
CC(c1ccccc1)N1C(=O)c2ccccc2C1Nc1ccc(F)cc1 (stereo unspecified)
 : -0.85, 0.3
O=C1CSC(c2cc3c(cc2Br)OCO3)N1c1ccccc1F (stereo unspecified)
 : x, 0.51
COc1ccc2cc(NC(=O)c3ccc(Cl)cc3Cl)c(=O)oc2c1
 : x, 1.6
COc1cc2c(cc1OC)CC(=O)OC2
 : x, 1.8
Cc1ccccc1NC(=O)/C(C#N)=C(\Nc1ccccc1)SCc1ccccc1Cl
 : x, -0.12
CCCS(=O)(=O)c1c(S(=O)(=O)CCC)c2ccc(C(N)=O)cn2c1C(=O)c1ccc(F)cc1
 : x, -0.77
FC(F)(F)c1cc(Cl)nc(-c2ccccc2)n1
 : -0.4, -0.085
O/N=C\c1cn(-c2ccccc2)nc1-c1ccc(Br)cc1
 : 0.3, 0.34
COc1cccc(C2CC(c3ccc(Br)cc3)=NN2C(=O)c2ccncc2)c1OC (stereo unspecified)
 : x, -0.57
NC(=O)COC(=O)c1ccc(Cl)c(S(=O)(=O)N2CCCCCC2)c1
 : -0.8, x
CCCCCCC(=O)Nc1cccc(C(=O)N/N=C/c2ccc(O)c([N+](=O)[O-])c2)c1
 : x, -0.2
CSc1ccc(C(=O)Nc2nnc(C3=COCCO3)o2)cc1
 : -0.55, x
O=C(c1ccc(-n2cccc2)cc1)N1CCC(O)(c2ccc(Cl)c(C(F)(F)F)c2)CC1
 : x, -0.54
COc1cc2c(cc1OC)C(C)N(C(=O)c1cc3c(C)cc(C)cc3[nH]1)CC2 (stereo unspecified)
 : 0.2, 0.33
CC1=Nc2ccccc2N=C(NC(=O)CSC(=S)N2CCCCC2)C1c1ccccc1 (stereo unspecified)
 : -0.7, -0.78
O=C(CSc1nnc(C2CC2)n1Cc1ccco1)c1ccc2[nH]c(=O)oc2c1
 : 1.4, x
O=C(/C=C\c1ccccc1)Nc1nnc(-c2ccc(Cl)cc2)s1
 : -0.45, i
COc1cccc(C2C(C#N)=C3N=C(N)c4ccccc4N3C3=C2C(=O)CCC3)c1 (stereo unspecified)
 : -0.4, -1.4
Cc1cc(C)n(CCCNCc2ccc(OCc3csc(C)n3)cc2)n1
 : 0.2, x
Cc1nc2c(-c3ccccc3)c(C)nn2c(C)c1CC(=O)NCCN1CCOCC1
 : -0.75, 0.17
COC(=O)c1ccccc1N=C(C)C1=C(O)c2ccccc2C1=O
 : -0.7, -0.27
O=C(NCc1ccccc1)NCc1ccccc1
 : 0.7, x
O=c1cc(-c2ccc(F)cc2)[nH]n1-c1nc2ccccc2[nH]1
 : -0.6, x
CCSc1nnc(C(N)Cc2ccccc2)o1 (stereo unspecified)
 : -0.05, x
CC1SC2=NNC(c3ccc(Cl)cc3)=CN2C1=O (stereo unspecified)
 : 0.2, -0.36
O=C(O)COc1cccc(Br)c1
 : -1.8, -0.4
COc1cc(OC)c(CN2CCN(c3ccccc3C)CC2)cc1Br
 : 0.25, 0.05
Cc1oc2ccccc2c1CC(=O)Nc1ccc(C(F)(F)F)cc1
 : -0.5, 1
COc1ccc(/C=C/C(=O)N2CCN=C2c2ccccc2)cc1OC
 : 0.05, 0.025
CC(C)NC(=S)Nc1ccc2[nH]c(=O)[nH]c2c1
 : -0.55, x
CC(C)(C)c1ccc(/C=N/n2cnnc2)cc1
 : 1.9, -0.65
COc1cccc(NC(=O)NCc2c(-c3ccccc3)noc2C)c1
 : -0.4, 0.18
CN(C(=S)NC(=O)C1CC1)c1ccccc1
 : 0.3, x
NC(=Nc1ccc(Cl)cc1)c1ccccc1
 : -0.5, 0.23
Cc1ccc(F)cc1NC(=O)/C=C\C(=O)O
 : 0.7, 0.47
CC(=O)NC(Cc1c[nH]c2ccccc12)C(=O)OCc1nc(N)nc(Nc2ccccc2C)n1 (stereo unspecified)
 : -0.5, x
O=c1c2ccccc2nc2c3ccccc3c(N3CCOCC3)nn12
 : -1.1, -0.37
NNc1nnc(-c2ccccc2)c2ccccc12
 : 0.35, -1.1
CN1N=C2c3ccccc3CCCC2C1c1ccc2c(c1)OCO2 (stereo unspecified)
 : -0.2, 37

Reformatted as comma-separated lines: 4 of the compounds above.
SMILES,AID504770,Ba CapD inh
NC(=Nc1ccc(Cl)cc1)c1ccccc1,-0.5,0.23
Cc1ccc(F)cc1NC(=O)/C=C\C(=O)O,0.7,0.47
CC(=O)NC(Cc1c[nH]c2ccccc12)C(=O)OCc1nc(N)nc(Nc2ccccc2C)n1 (stereo unspecified),-0.5,x
O=c1c2ccccc2nc2c3ccccc3c(N3CCOCC3)nn12,-1.1,-0.37

Later entries:
Second line of a record – AID504770, Ba CapD inh
COc1cccc(NC(=O)c2ccc(S(=O)(=O)N3CCCC3)cc2)c1
 : 1.5, 0.11
CNCc1ccc(SC)cc1
 : -0.45, x
Cc1c(Cl)cccc1NC(=S)N(C1CCCCC1)C(C)c1cccnc1 (stereo unspecified)
 : -0.25, 2.4
N#C/C(=C\Nc1nccs1)S(=O)(=O)c1ccc(Cl)cc1
 : -0.4, 27
O=C(Nc1cc(C(F)(F)F)ccc1Cl)C1=COCCO1
 : -0.1, x
CCCN(CCC)C(=O)Cn1c(=O)n(Cc2ccc(C(=O)NCc3ccco3)cc2)c(=O)c2ccccc21
 : 0.4, 0.035
COc1cccc(C2OC[C@@H]3COc4ccc5ccccc5c4[C@@H]3N2C)c1 (stereo partly specified)
 : x, -0.18
O=C(COc1ccc(N2C(=O)c3ccccc3NC2c2ccccc2)cc1)Nc1ccccc1 (stereo unspecified)
 : x, 35
Cn1c(=O)c2c(O)c(C=Nc3ccc(Cl)cc3)c(=O)n(C)c2n(C)c1=O
 : 1.8, -1.3
Cc1ccc(C)n1CCC(C)C
 : -1.1, x
O=C1NC(=S)N(c2cccc(Cl)c2Cl)C(=O)/C1=C/c1ccc2c(c1)OCO2
 : x, 0.27
CCCc1c(C)nn(-c2ncccc2N)c1C
 : 0.2, 5.1
Oc1ccc(N=Cc2cn(-c3ccccc3)nc2-c2ccco2)cc1
 : 0.3, x
CC1C2=C(CCCC2=O)Nc2nc3ccccc3n21 (stereo unspecified)
 : -0.35, x
CC(=O)NC(c1ccccc1)c1ccc2cccnc2c1O (stereo unspecified)
 : -2.1, -1.5
COc1ccc(NC(=O)/C(=C/c2ccc3c(c2)OCO3)NC(C)=O)cc1
 : 1.1, -1.9
Cc1ccc(-c2nc3ncccn3c2NC2CCCC2)o1
 : 0.45, -0.43
O=C(NN(Cc1c(F)cccc1Cl)c1ccccc1)C(Cl)(Cl)Cl
 : x, -0.58
COC(=O)c1ccccc1S(=O)(=O)N1CCc2[nH]c3ccc(F)cc3c2C1
 : 0, -0.57
COC(=O)c1ccc(C(=O)Nc2sc3c(c2-c2nc4ccccc4s2)CCC(C)C3)cc1 (stereo unspecified)
 : x, -0.015
Cc1nc2c(c(C)c1CCC(=O)NC(C)C)c(=O)n(C)c(=O)n2C
 : 0.45, 0.83
Cc1oc(-c2cc(Cl)ccc2Cl)cc1C(=O)NCCO
 : -1, x
CCCCCC1=CCC/C1=N\NC(=O)c1ccc(N(CC)CC)cc1
 : 1.1, x
COc1cccc(/C=C/C(=O)O)c1
 : -1.1, 16
O=C1/C(=C/c2cccnc2)N2CCC1CC2
 : -0.3, -0.28
CC(C)CC(C(=O)NCc1ccccc1F)N1C(=O)C2CC=CCC2C1=O (stereo unspecified)
 : -0.4, x
COc1ccccc1NC(=O)c1cc(=O)c2ccccc2o1
 : 1.6, 0.43
COc1ccccc1NS(=O)(=O)c1ccc2oc(SCc3cn4c(C)cc(C)nc4n3)nc2c1
 : 0.1, x
NC(=O)C1CCN(C2CCN(C(=O)c3ccc4c(c3)[nH]c(=S)n3c5ccccc5nc43)CC2)CC1
 : x, -0.12
O=S(=O)(NCCC1=CCCCC1)c1ccc(-n2cccn2)cc1
 : -0.95, -1.2
O=C1CNC(=S)N1Cc1ccccn1
 : x, -0.38
CC1Cc2ccccc2N1C(=O)CSC1=NCCS1 (stereo unspecified)
 : 0.1, 0.15
CN1c2ccccc2C(C)(C)C12C=Nc1c(ccc3ncccc13)O2 (stereo unspecified)
 : x, -0.065
O=C(O)CCn1c(-c2cccs2)n[nH]c1=S
 : -0.5, x
NCC(O)COCC1COc2ccccc2O1 (stereo unspecified)
 : 2, -0.88
Cc1ccc(-n2c(=O)cc(N3CCc4ccccc43)[nH]c2=O)cc1
 : -0.3, 0.53
N#C/C(N=Cc1cccs1)=C(\C#N)NCc1c(F)cccc1Cl
 : -0.35, -0.45
N#Cc1ccccc1NS(=O)(=O)c1cccs1
 : 0.2, 1
CC1CCCN(C(=O)C2CCN(CC3CC=CCC3)CC2)C1 (stereo unspecified)
 : 1.4, x
COc1cccc(NC(=O)NC2Cc3ccccc3C2)c1
 : x, 0.02
Fc1cccc(CNCc2cn[nH]c2-c2ccc(Br)cc2)c1
 : -1.3, -0.12
CN(C)S(=O)(=O)c1cccc(-c2nnc(SCc3ccc4c(c3)OCCO4)o2)c1
 : -0.8, x
Cn1c(=O)c2[nH]c(SCC(=O)O)nc2n(C)c1=O
 : x, 1.7
CCc1ccc(NC(=O)CSc2nc3ccccc3c(=O)n2CCCC(=O)NCCCN2CCOCC2)cc1
 : x, -0.51
Cc1sc2ncnc(N3CCC(C(=O)OCC(=O)NC4CC4)CC3)c2c1C
 : 0.1, x
CCOc1cc2oc(=O)cc(-c3ccccc3)c2cc1Cl
 : 2.5, -0.28
CCN(CCO)C1CC(=O)N(c2ccccc2C)C1=O (stereo unspecified)
 : -0.75, -0.17
Cc1noc(C)c1CSCC(=O)N1CC(C)SC1=Nc1ccc(Cl)cc1 (stereo unspecified)
 : -0.5, x
N#CCC(=O)Nc1ccncc1
 : -0.55, 0.08
O=C(c1ccccn1)N1CCN(c2ccc(C(F)(F)F)cn2)CC1
 : -0.2, x
O=C(/C=C/c1ccco1)OCC(=O)C12CC3CC(CC(C3)C1)C2
 : 0.2, 0.02
COc1ccc(-n2c(=S)[nH]c3cc(C(=O)Nc4cc(C(N)=O)ccc4OC)ccc3c2=O)c(OC)c1
 : x, 0.26
c1ccn2c(Cc3nnc4ccccn34)nnc2c1
 : -0.35, 0.15
CCCn1c(N2CCN(Cc3ccc(Cl)cc3)CC2)nc2ccccc21
 : 0.3, x
Cc1[nH]c2ccccc2c1C(c1ccncc1)N1CCN(C)CC1 (stereo unspecified)
 : -0.6, -0.56
CN(C)c1ccc(/C=C2/S/C(=N/O)NC2=O)cc1
 : -0.1, 4.8
CC(=O)N=c1cccc(NC(C)=O)n1O
 : 1.8, x
O=c1c(C2NCCC3(O)CCCCC23)coc2ccc(Cl)cc12 (stereo unspecified)
 : 0.4, -0.76
COc1cccc(N2C(=O)C=CC2=O)c1
 : -0.75, -0.15
CCOC(=O)C1=C(C)N=c2s/c(=C\c3ccc(OC)c(Br)c3)c(=O)n2C1c1ccc2c(c1)OCO2 (stereo unspecified)
 : x, -0.16

Compound profiles, as listed above. Screens in order: AID504770, Ba CapD inh
Listed for `COc1cccc(/C=C/C(=O)O)c1` → -1.1, 16
Listed for `NCC(O)COCC1COc2ccccc2O1` (stereo unspecified) → 2, -0.88
Listed for `CC1SC2=NNC(c3ccc(Cl)cc3)=CN2C1=O` (stereo unspecified) → 0.2, -0.36
Listed for `O=C(NN(Cc1c(F)cccc1Cl)c1ccccc1)C(Cl)(Cl)Cl` → x, -0.58

(further entries)
Second line of a record – AID504770, Ba CapD inh
S=C(NCc1ccco1)Nc1ccccc1
 : 0.95, x
CCOc1ccc(/C=c2/sc3nnc(-c4ccccc4C)n3c2=O)cc1
 : -0.2, 0.04
COc1ccccc1C1CC(c2ccccc2)=NN1S(=O)(=O)c1ccccc1 (stereo unspecified)
 : x, -0.065
COc1ccc2[nH]c(C(=O)Nc3ccc(F)cc3Br)cc2c1
 : 0.2, 30
COC(=O)Nc1cccc(NC(=O)OC)c1F
 : -0.55, 0.48
CC(C)CC(C(=O)Nc1oc(-c2ccccc2)c(-c2ccccc2)c1C#N)N1C(=O)c2ccccc2C1=O (stereo unspecified)
 : x, -0.07
O=C(CN1CCCCC1)N/N=C/c1ccc(/C=N/NC(=O)CN2CCCCC2)cc1
 : 2.1, x
COCCn1c(-c2cccc(C)c2)nn(CN2CCCC(C(N)=O)C2)c1=S (stereo unspecified)
 : -3, x
O=C(/C=C/c1ccccc1)Nc1ccc(C(=O)O)cc1
 : -0.5, -2.5
N#Cc1c(Cl)cccc1Oc1ccc(S(=O)(=O)Nc2ccc3[nH]ncc3c2)cc1
 : x, 2
O=C(Nc1cccnc1)OC1CCCC1
 : -0.65, x
CN(C)C(CNS(=O)(=O)c1ccc(F)cc1)c1cccnc1 (stereo unspecified)
 : -0.45, -1.6
CN1CCN(CC2COc3ccccc3O2)CC1 (stereo unspecified)
 : -0.85, -0.08
CC(NCc1ccccc1)C1COc2ccccc2O1 (stereo unspecified)
 : -0.35, 3.4
COc1ccc(S(=O)(=O)N2CCC(NC(=O)NCC3CCCO3)CC2)cc1 (stereo unspecified)
 : 1.8, -0.1
O=C(CNC(=O)c1cccc(F)c1)OC1CCCCC1=O (stereo unspecified)
 : 0.35, x
COc1ccc(-c2cnc(N3CCN(c4cccc(C(F)(F)F)c4)CC3)nc2)cc1
 : x, 1.8
CC1(C)CC(=O)C2=C(C1)OC1=C(C(=O)CC(C)(C)C1)C2c1cccc2ccccc12
 : x, -0.21
CN(C)C(=O)Cn1c(=O)n(S(=O)(=O)c2ccccc2)c2ccccc21
 : 2.2, 0.49
Cc1ccc2c(c1)cc(CN(Cc1ccco1)C(=O)N(C)C)c1nnnn12
 : -0.55, x
CCOC(=O)c1ccc(NC(=O)c2sc(=S)n(-c3cccc(OC)c3)c2N)cc1
 : x, 0.81
